DUX4 txn inh – blocks DUX4-driven transcriptional activation; 37,000 compounds, 0.8% hits; 293T-iDUX4 ZSCAN4-Gaussia luciferase reporter, 24 h; stronger effect = lower value; activity change, negative = inhibition, % (test concentration not listed);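 active = -10% or lower and over 25 points stronger than a control reporter; inconclusive = -10% or lower with a smaller gap; inactive = above -10%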;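 also: 0% = median of neutral control wells and -100% = median of positive control wells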
DUX4 txn inh difference – second read-out of DUX4 txn inh, no call of its own (marks repeat the call); Gaussia minus Italica difference, %; measured here: selective DUX4 reporter inhibition;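 worked out from the two reporters; negative = selective loss of the DUX4 reporter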
DUX4 txn inh control – also measured in DUX4 txn inh; calls as there; activity change, negative = inhibition, %; measured here: Italica tet-on control reporter;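 0 = neutral control and -100 = positive control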
* = called active by the depositor; ? = inconclusive; . = no result given; & = joins results of further samples. Not all compounds are listed, so the mix of outcomes need not match the whole.

DUX4 txn inh control	DUX4 txn inh	DUX4 txn inh difference	molecule
-4.6	-7.6	-2.9	O=C(Nc1ccc(F)cc1)Nc1ccc2c(c1)[C@@H]1C[C@H](CC(=O)N3CCOCC3)O[C@H](CO)[C@@H]1O2
-0.5	1.4	1.9	N#C[C@@H]1[C@@H](c2ccc(-c3cccc(F)c3)cc2)[C@@H](CO)N1S(=O)(=O)c1cccc(F)c1
0.7	-1.1	-1.7	C[C@H](CO)N1C[C@H](C)[C@H](CN(C)Cc2ccc(C(=O)O)cc2)Oc2ccc(NS(=O)(=O)c3cccs3)cc2C1=O
-5.7	14.6	20.3	COc1ccc2c3c([nH]c2c1)[C@H](CO)N(C)CC31CN(S(=O)(=O)c2cn(C)cn2)C1
2.8	6.1	3.3	COc1ccccc1C#Cc1cnc2c(c1)C(=O)N([C@H](C)CO)C[C@H](C)[C@H](CN(C)S(=O)(=O)c1cn(C)cn1)O2
3.6	4.8	1.2	CCNC(=O)[C@H]1[C@H](CO)[C@H]2Cn3c(ccc(-c4ccccc4F)c3=O)[C@@H]1N2S(C)(=O)=O
10.3	12.9	2.5	COCC(=O)N1[C@H](CO)[C@H](c2ccccc2-c2cccc(OC)c2)[C@@H]1C#N
0.8	-0.8	-1.6	CCC(=O)N1[C@H](CO)[C@@H](c2ccccc2)[C@H]1CN(C)C(=O)CN1CCOCC1
0.6	-2.3	-2.9	COCC(=O)Nc1ccc2c(c1)[C@@H]1C[C@@H](CC(=O)NCc3ccc(-c4ccccc4)cc3)O[C@H](CO)[C@@H]1O2
2.4	0.5	-1.9	COCC(=O)N1C[C@@H]2[C@H](c3ccccc31)[C@@H](CO)N2C(=O)Nc1ccccc1Cl
0.5	1.2	0.7	N#C[C@@H]1[C@H](c2ccccc2)[C@H](CO)N1C(=O)c1cc(Cl)cc(Cl)c1
4.1	3.2	-0.9	C[C@@H]1CN([C@H](C)CO)C(=O)Cc2cc(NC(=O)Cn3cnnn3)ccc2O[C@H]1CN(C)Cc1ccc(Oc2ccccc2)cc1
.	?	.	OC[C@@H]1[C@H](c2ccc(-c3ccc(F)cc3)cc2)[C@@H]2CN(CCC(F)(F)F)CCCCN12
.	?	.	COc1ccccc1-c1ccc2c(c1)[C@@H]1[C@@H](CCN1S(=O)(=O)c1ccccc1)[C@H](CO)N2
-2.6	-0.9	1.7	CCC(=O)N(C[C@@H]1N[C@H](CO)[C@@H]1c1ccc(C#C[C@@H](C)O)cc1)C1CCCCC1
9.2	7.2	-1.9	O=C(C[C@@H]1CC[C@H]2[C@@H](COC[C@@H](O)CN2Cc2cccc(C(F)(F)F)c2)O1)NCCc1ccncc1
1.7	6.1	4.4	C[C@@H]1CN([C@H](C)CO)C(=O)c2cc(NC(=O)c3ccncc3)ccc2O[C@@H](C)CCCCO[C@H]1CN(C)Cc1ccc(Cl)c(Cl)c1
.	?	.	C[C@H](NC(=O)N(C)C[C@H]1OCc2ccccc2-c2c(n(C)c3ccccc23)C(=O)N([C@@H](C)CO)C[C@@H]1C)c1ccccc1
2.3	2.5	0.2	O=C(c1cnccn1)N1CC(=O)N2[C@H](CO)[C@@H](c3ccc(C4=CCCCC4)cc3)[C@H]2C1
-0.3	2.2	2.5	COCC(=O)Nc1ccc2c(c1)[C@@H]1C[C@@H](CC(=O)NCCc3ccccc3)O[C@H](CO)[C@@H]1O2
1.3	3.8	2.5	CC(C)NC(=O)N1CC2(C1)[C@@H](c1ccccc1)[C@@H](CO)N2C(=O)c1ccccn1
8.5	-1.8	-10.3	CO[C@H](C(=O)N(C)C[C@H]1OCc2ccccc2-c2ccccc2C(=O)N([C@H](C)CO)C[C@H]1C)c1ccccc1
2.1	-0.2	-2.3	Cc1ccc(S(=O)(=O)Nc2ccc3c(c2)C(=O)N(C)[C@H]2CC[C@H](CC(=O)NCCc4ccncc4)O[C@H]2CO3)cc1
2.4	1.7	-0.7	C/C=C/c1ccc([C@H]2[C@@H](CO)N(C(=O)NC(C)C)[C@@H]2CNC(C)=O)cc1
-4.4	-5.6	-1.2	CN1C(=O)c2cc(NC(=O)c3ccc(F)c(F)c3)ccc2OC[C@@H]2O[C@@H](CC(=O)N[C@@H]3CCN(Cc4ccccc4)C3)CC[C@@H]21

Seven structures already listed, ordered by SMILES length, ascending.
DUX4 txn inh control	DUX4 txn inh	DUX4 txn inh difference	molecule
2.4	1.7	-0.7	C/C=C/c1ccc([C@H]2[C@@H](CO)N(C(=O)NC(C)C)[C@@H]2CNC(C)=O)cc1
.	?	.	COc1ccccc1-c1ccc2c(c1)[C@@H]1[C@@H](CCN1S(=O)(=O)c1ccccc1)[C@H](CO)N2
9.2	7.2	-1.9	O=C(C[C@@H]1CC[C@H]2[C@@H](COC[C@@H](O)CN2Cc2cccc(C(F)(F)F)c2)O1)NCCc1ccncc1
8.5	-1.8	-10.3	CO[C@H](C(=O)N(C)C[C@H]1OCc2ccccc2-c2ccccc2C(=O)N([C@H](C)CO)C[C@H]1C)c1ccccc1
2.1	-0.2	-2.3	Cc1ccc(S(=O)(=O)Nc2ccc3c(c2)C(=O)N(C)[C@H]2CC[C@H](CC(=O)NCCc4ccncc4)O[C@H]2CO3)cc1
4.1	3.2	-0.9	C[C@@H]1CN([C@H](C)CO)C(=O)Cc2cc(NC(=O)Cn3cnnn3)ccc2O[C@H]1CN(C)Cc1ccc(Oc2ccccc2)cc1
.	?	.	C[C@H](NC(=O)N(C)C[C@H]1OCc2ccccc2-c2c(n(C)c3ccccc23)C(=O)N([C@@H](C)CO)C[C@@H]1C)c1ccccc1

Continuation.
DUX4 txn inh control	DUX4 txn inh	DUX4 txn inh difference	molecule
-0.6	-6.4	-5.8	O=C(Nc1ccccc1)Nc1ccc2c(c1)[C@@H]1C[C@H](CC(=O)N3CCCCC3)O[C@@H](CO)[C@@H]1O2
-2.0	-3.0	-1.0	Cc1noc(C)c1NC(=O)Nc1ccc2c(c1)C(=O)N(C)[C@H]1CC[C@@H](CC(=O)NCc3ccc(Cl)cc3)O[C@@H]1CO2
1.2	4.9	3.8	N#C[C@H]1[C@@H](c2ccccc2)[C@H](CO)N1C(=O)c1cccnc1
1.6	10.7	9.1	O=C(c1ccncc1)N1CC(=O)N2[C@@H](CO)[C@@H](c3ccc(-c4ccccc4F)cc3)[C@@H]2C1
6.1	-3.0	-9.1	O=C(C[C@@H]1CC[C@H]2NC[C@@H](O)COC[C@@H]2O1)NCCN1CCCCC1
-1.4	-1.4	0.0	C[C@@H]1CN([C@@H](C)CO)S(=O)(=O)c2ccc(C#CC3CC3)cc2O[C@H]1CN(C)C(=O)c1cccc(F)c1
18.1	42.2	24.0	COc1ccc(NC(=O)N2CCCCN3[C@H](C2)[C@H](c2ccc(C#Cc4ccccn4)cc2)[C@@H]3CO)cc1
-2.5	-2.6	-0.1	N#C[C@H]1[C@@H](c2ccc(C#Cc3ccccc3F)cc2)[C@H](CO)N1C(=O)c1cccnc1
6.6	-9.6	-16.2	C[C@@H]1CN([C@@H](C)CO)C(=O)c2c(c3ccccc3n2C)-c2ccccc2CO[C@@H]1CN(C)C(=O)Nc1cccc(F)c1
-5.7	13.0	18.7	COc1ccc2c3c([nH]c2c1)[C@H](CO)N(C)CC31CN(C(=O)c2ccccn2)C1
7.5	1.0	-6.5	COc1cccc(CN2[C@@H](CO)[C@H](c3ccccc3)C23CN(C(=O)C2CCCCC2)C3)c1
-1.2	-2.2	-1.0	COc1cccc(-c2ccc3c(c2)O[C@@H](CN(C)C(=O)c2ccccc2F)[C@H](C)CN([C@H](C)CO)S3(=O)=O)c1
-0.9	0.1	1.0	O=C1CCCCn2cc(nn2)COC[C@@H](Cc2ccccc2)N1
-2.6	-1.8	0.8	CCCC(=O)N1C[C@H]2[C@@H](c3ccccc31)[C@H](CO)N2C(=O)Nc1ccccc1
.	?	.	COc1cccc(S(=O)(=O)N2CC3(CN(C(=O)Nc4ccc(F)cc4)[C@@H](CO)c4[nH]c5cc(OC)ccc5c43)C2)c1
-0.6&7.1	10.6&25.3	11.2&18.3	C/C=C/c1ccc(C2[C@H]3CNC[C@@H]2N3C(=O)Nc2ccc3c(c2)OCO3)cc1 (some centres not stated)
5.6	-4.9	-10.5	COc1ccccc1CNC(=O)C[C@@H]1C=C[C@H](NC(=O)CC2CC2)[C@H](CO)O1
1.1	-4.4	-5.5	CCS(=O)(=O)Nc1ccc2c(c1)C(=O)N(C)[C@H]1CC[C@@H](CC(=O)NC)O[C@H]1CO2
-2.1	4.5	6.5	CN(C)CCCNC(=O)C[C@H]1CC[C@@H]2[C@H](COC[C@@H](O)CN2Cc2cccc(C(F)(F)F)c2)O1
-1.4	-0.8	0.6	C[C@H](CO)N1C[C@H](C)[C@H](CN(C)CC2CCOCC2)Oc2cc(C#Cc3ccccc3F)ccc2S1(=O)=O
2.5	13.1	10.6	C[C@H](CO)N1C[C@H](C)[C@H](CN(C)S(=O)(=O)c2ccccc2)Oc2ncc(C#CC3CCCCC3)cc2C1=O
-3.1	3.0	6.1	COc1cccc(C(=O)Nc2ccc3c(c2)C(=O)N(C)[C@H]2CC[C@H](CC(=O)NCc4ccccc4F)O[C@H]2CO3)c1
4.3	2.5	-1.8	C[C@@H]1CN([C@@H](C)CO)S(=O)(=O)c2ccc(C#Cc3ccccc3F)cc2O[C@@H]1CN(C)CC1CCOCC1
2.0	6.4	4.4	O=C(Cc1cccnc1)N1CC2(C1)[C@H](c1ccccc1)[C@H](CO)N2C(=O)C1CC1
4.8	9.0	4.1	CC(=O)N1CC2(C1)[C@@H](c1ccc(-c3ccc(F)cc3)cc1)[C@H](CO)N2C(C)=O
2.2	-0.3	-2.5	CCCC#Cc1ccc([C@@H]2[C@@H](C#N)N(S(=O)(=O)c3cccc(F)c3)[C@H]2CO)cc1
1.1	-1.1	-2.2	COc1ccccc1-c1ccc([C@@H]2[C@H](C#N)N(C(=O)C3CCC3)[C@H]2CO)cc1
.	?	.	COc1ccc2c3c([nH]c2c1)[C@H](CO)N(Cc1cc(F)ccc1F)CC31CN(C)C1
3.5	11.5	8.0	COc1ccccc1-c1ccc2n(c1=O)C[C@@H]1[C@@H](CO)[C@H](C(=O)N3CCCCC3)[C@H]2N1CC1CC1
2.1&0.1	13.0&18.2	10.9&18.1	C/C=C/c1ccc(C2[C@H]3CNC[C@@H]2N3C(=O)Nc2ccc(C(F)(F)F)cc2)cc1 (some centres not stated)
1.8	3.2	1.4	CS(=O)(=O)Nc1ccc2c(c1)[C@H]1C[C@H](CC(=O)NCc3ccccn3)O[C@H](CO)[C@H]1O2
-1.0	-6.5	-5.5	CCS(=O)(=O)Nc1ccc2c(c1)C(=O)N(C)[C@H]1CC[C@H](CC(=O)NCc3ccc(OC)cc3)O[C@@H]1CO2
0.3	3.9	3.6	CC[C@H]1CC=CC[C@H](C)Oc2ccccc2C(=O)N(C)[C@@H](C)C(=O)N1 (mixture of isomers)
-2.0	-2.4	-0.4	C[C@H](CO)N1C[C@H](C)[C@@H](CN(C)S(=O)(=O)c2cccs2)Oc2ncc(C#CCC3CCCC3)cc2C1=O
3.3	4.5	1.2	O=C(C[C@H]1C=C[C@H](NC(=O)C2CCC2)[C@@H](CO)O1)NCc1ccccc1Cl
6.7	-6.4	-13.1	CCN1[C@@H]2Cn3c(ccc(-c4ccccc4)c3=O)[C@H]1[C@@H](C(=O)Nc1ccccc1)[C@@H]2CO
1.1	-4.4	-5.5	Cc1noc(C)c1C(=O)N(C)C[C@H]1OCc2ccccc2-c2c(n(C)c3ccccc23)C(=O)N([C@H](C)CO)C[C@H]1C
3.0	-2.1	-5.1	COc1ccccc1CNC(=O)C[C@H]1CC[C@H]2[C@@H](COC[C@H](O)CN2Cc2ccccc2)O1
2.9	-1.7	-4.6	C[C@H]1CN([C@@H](C)CO)S(=O)(=O)c2ccc(C#Cc3cccnc3)cc2O[C@@H]1CN(C)C(=O)Nc1ccc2c(c1)OCO2
3.3	1.2	-2.1	COCC(=O)N1[C@H](CO)[C@@H]2c3ccccc3NC[C@@H]21
-1.7	5.1	6.8	O=C(C[C@@H]1CC[C@H]2[C@@H](COC[C@@H](O)CN2S(=O)(=O)c2cccc(Cl)c2)O1)N1CCCCC1
-2.3	-4.7	-2.4	N#C[C@H]1[C@@H](c2ccc(C#Cc3ccccc3F)cc2)[C@@H](CO)N1C(=O)C1CCOCC1
.	?	.	O=C(C[C@@H]1CC[C@H]2[C@@H](COC[C@@H](O)CN2Cc2cc(F)ccc2F)O1)N[C@@H]1CCN(Cc2ccccc2)C1
-12.0	-4.3	7.7	O=C(C[C@H]1CC[C@H]2[C@@H](COC[C@H](O)CN2Cc2ccncc2)O1)NCc1ccncc1
-1.7	1.6	3.3	O=C(C[C@H]1C[C@H]2c3cc(NS(=O)(=O)c4ccccc4)ccc3O[C@H]2[C@@H](CO)O1)N1CCOCC1
7.3	10.8	3.5	CS(=O)(=O)Nc1ccc2c(c1)[C@H]1C[C@@H](CC(=O)NCC(F)(F)F)O[C@@H](CO)[C@H]1O2
2.9	-4.0	-6.8	COCC(=O)Nc1ccc2c(c1)C(=O)N(C)[C@@H]1CC[C@H](CC(=O)O)O[C@@H]1CO2
.	?	.	COc1ccc2c3c(n(C)c2c1)[C@@H](CO)N(C(=O)c1ccccc1)CC31CN(CC2CC2)C1
0.9	1.0	0.1	O=C(C[C@@H]1C[C@@H]2c3cc(NC(=O)Nc4ccccc4)ccc3O[C@@H]2[C@H](CO)O1)NC1CCCC1
-3.3	14.0	17.3	COc1ccccc1C#Cc1ccc2c(c1)[C@H]1[C@H](CCN1S(=O)(=O)c1cn(C)cn1)[C@@H](CO)N2

New compounds follow
DUX4 txn inh control	DUX4 txn inh	DUX4 txn inh difference	molecule
5.9	2.2	-3.7	Cc1ccccc1S(=O)(=O)N1C[C@H](O)COC[C@H]2O[C@H](CC(=O)N3CCCCC3)CC[C@@H]21
-0.7	3.0	3.6	O=C(c1ccccn1)N1C[C@@H]2[C@H](c3ccccc31)[C@@H](CO)N2C(=O)c1ccccn1
4.3	4.1	-0.2	Cn1cnc(S(=O)(=O)N2C[C@@H](O)COC[C@H]3O[C@H](CC(=O)NC4CCC4)CC[C@@H]32)c1
-0.1	2.0	2.1	CN(C[C@@H]1N[C@H](CO)[C@@H]1c1ccc(-c2cccc(F)c2)cc1)C(=O)C1CCC1

High-throughput results from PubChem BioAssay.
